NPSR antag: blocks cAMP signaling of the human neuropeptide S receptor; Q6W5P4; CHO-NPSR cells, cAMP TR-FRET, antagonist mode; Potency, µM (top dose mostly 38.3 µM), for inactives: at the highest dose activity change, negative = inhibition, most hits filed as inhibitors; 220,000 tested, 1% active; also: % is scaled to controls: 0 for no effect and ±100 for the full control effect; nearly all actives have a fitted effect of over 50% in size; many of its hits are not listed in these tables
Target sequence (Q6W5P4 whole entry, looked up): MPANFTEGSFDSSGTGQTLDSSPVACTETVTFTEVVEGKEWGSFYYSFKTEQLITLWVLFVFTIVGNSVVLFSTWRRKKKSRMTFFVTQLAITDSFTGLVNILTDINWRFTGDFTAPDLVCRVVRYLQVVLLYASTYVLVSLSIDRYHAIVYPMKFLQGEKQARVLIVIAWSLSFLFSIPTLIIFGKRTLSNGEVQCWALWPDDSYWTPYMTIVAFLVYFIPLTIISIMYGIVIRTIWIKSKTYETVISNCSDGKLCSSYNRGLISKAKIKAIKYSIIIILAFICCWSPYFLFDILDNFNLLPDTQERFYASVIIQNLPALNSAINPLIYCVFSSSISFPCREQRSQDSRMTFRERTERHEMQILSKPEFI
JMJD2E inh: JMJD2E (human) inhibition; B2RXH2; 230,000 tested, 1.6% active; JMJD2E catalytic domain, FDH-coupled NADH fluorescence (FDH is formaldehyde dehydrogenase); Potency, µM (top dose mostly 57.1 µM), inactives show top-dose activity change, negative = inhibition, hits mostly inhibitors; active = well fitted inhibition curve with a large enough effect, not every such curve was filed as active; inconclusive = small, poorly fitted or top-dose-only effect, or another doubt; inactive = no such curve, though single readings can be large or run the other way;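 also: 0% = wells with enzyme and -100% = buffer wells without enzyme; nearly all actives have a fitted effect of over 50% in size; many of its hits are not listed in these tables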
RGS12 GoLoco inh: inhibitors of human Gai1-RGS12 GoLoco interaction (red fluorophore); 230,000 tested, 0.44% active; P63096; AID 880; Gai1:RGS12 GoLoco peptide FP, rhodamine, 10 min; Potency, µM (top dose mostly 61.6 µM), without a hit: at the highest dose activity, negative = inhibition, usual class: inhibitors; active = well fitted inhibition curve with a large enough effect, not every such curve was filed as active; inactive = no such curve, though single readings can be large or run the other way; also: % is scaled to controls: 0 for no effect and ±100 for the full control effect; nearly all actives have a fitted effect of over 30% in size; many of its hits are not listed in these tables
Epigenetic derep: derepresses silenced GFP reporter in murine cells; murine LDR cells, GFP reporter derepression, 30 h; AID 1865; Potency, µM (top dose mostly 53.9 µM), for inactives: at the top dose GFP activation, actives largely listed as activators; 280,000 tested, 0.2% active; also: % of control where 0% means no effect; nearly all actives have a fitted effect of over 60% in size
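Murine LDR cells carrying a silenced, genomically integrated CMV-driven GFP reporter were exposed to compound for 30 hours at 37 C. After PBS washes, GFP-positive cells (20–120 um objects) were counted by laser-scanning microplate cytometry.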
Numbers without * were called inactive; ? = inconclusive; nt = not tested or not shown; & = joins results of further samples; [ ] = remark or other dose. Unless noted, calls follow the shape of the dose curve; as a rule, active = well fitted curve in the direction sought with a large enough effect; inconclusive = small, poorly fitted or top-dose-only effect, or another doubt; inactive = no such curve, though single readings can be large; an effect the other way counts as inactive or inconclusive. Potency is read from the fitted curve at half-maximal effect.

1. O=C(COC(=O)/C=C/c1ccco1)NCc1ccco1
2. O=C(O)CCC(=O)C(=O)O (tested in a mixture with another compound)
3. CC1(C)S[C@@H]2[C@H](NC(=O)C(N)c3ccccc3)C(=O)N2[C@H]1C(=O)O (some centres not stated)
4. O=C(O)C1CCN(S(=O)(=O)/C=C/c2ccccc2)CC1
5. CN(C)CCOC(c1ccccc1)c1ccccc1
6. O=C(O)CC(O)C(=O)O (configuration not stated)

screen / no.,1,2,3,4,5,6
NPSR antag,5%,nt,nt,0%[46.1 µM],11%,3%[46.1 µM]
JMJD2E inh,-14%,-5%,?,-2%,?,-3%
RGS12 GoLoco inh,2%,6%,1%[21.6 µM],6%,6%,3%
Epigenetic derep,-0.1%,-1.2%,0.0%[16.9 µM],-1.0%,1.1%,-0.6%

7. COc1ccc(C[C@H](C)NC[C@@H](O)c2ccc(O)c(NC=O)c2)cc1
8. COC(=O)c1ccc(NC(=O)Nc2ccccc2F)cc1
9. COC(=O)C1=C(C)NC(C)=C(C(=O)OCCCN2CCC(c3ccccc3)(c3ccccc3)CC2)C1c1cccc([N+](=O)[O-])c1 (configuration not stated)
10. N[C@H](CO)C(=O)O
11. C[C@](N)(Cc1ccc(O)cc1)C(=O)O
12. OCC(O)CO

screen / no.,7,8,9,10,11,12
NPSR antag,nt,-9%,nt,7%[46.1 µM],-4%[46.1 µM],nt
JMJD2E inh,-4%,?,nt,-3%,-2%,nt
RGS12 GoLoco inh,1%,18%,10%&5%,-7%&3%&14%,6%&3%,2%&1%&9%
Epigenetic derep,1.1%,0.0%,1.1%&0.0%,-0.1%&0.0%,1.0%&-0.9%,nt

Single records, from the list above.
Results for `COC(=O)c1ccc(NC(=O)Nc2ccccc2F)cc1` → NPSR antag: -9%; JMJD2E inh: ?; RGS12 GoLoco inh: 18%; Epigenetic derep: 0.0%
Results for `O=C(O)CCC(=O)C(=O)O` (tested in a mixture with another compound) → NPSR antag: nt; JMJD2E inh: -5%; RGS12 GoLoco inh: 6%; Epigenetic derep: -1.2%
Results for `O=C(O)CC(O)C(=O)O` (configuration not stated) → NPSR antag: 3%[46.1 µM]; JMJD2E inh: -3%; RGS12 GoLoco inh: 3%; Epigenetic derep: -0.6%

Later entries
13. CCN(CC)C(C)CN1c2ccccc2Sc2ccccc21 (configuration not stated)
14. CCCn1c(=O)[nH]c(=O)c2[nH]cnc21
15. CCCC(CCC)C(=O)O
16. Cc1cc(NS(=O)(=O)c2ccc(N)cc2)no1
17. C[C@@](N)(Cc1ccc(O)cc1)C(=O)O
18. Cc1ccc(-c2cc(C(=O)N3CCN(c4ncccn4)CC3)c3ccccc3n2)cc1

screen / no.,13,14,15,16,17,18
NPSR antag,nt,10%,?,-9%,nt,-23%[46.1 µM]
JMJD2E inh,?,-2%&2%,0%&11%,-12%,5%,?
RGS12 GoLoco inh,1%,5%&-5%&6%,8%&-5%&4%,15%,5%,-7%
Epigenetic derep,?,0.3%&-0.1%&0.0%,1.2%&-0.3%,-4.1%,-2.1%,-0.7%

Part of the list above, field by field:
1: O=C(COC(=O)/C=C/c1ccco1)NCc1ccco1
  NPSR antag = 5%	JMJD2E inh = -14%	RGS12 GoLoco inh = 2%	Epigenetic derep = -0.1%
17: C[C@@](N)(Cc1ccc(O)cc1)C(=O)O
  NPSR antag = nt	JMJD2E inh = 5%	RGS12 GoLoco inh = 5%	Epigenetic derep = -2.1%
9: COC(=O)C1=C(C)NC(C)=C(C(=O)OCCCN2CCC(c3ccccc3)(c3ccccc3)CC2)C1c1cccc([N+](=O)[O-])c1 (configuration not stated)
  NPSR antag = nt	JMJD2E inh = nt	RGS12 GoLoco inh = 10%&5%	Epigenetic derep = 1.1%&0.0%
15: CCCC(CCC)C(=O)O
  NPSR antag = ?	JMJD2E inh = 0%&11%	RGS12 GoLoco inh = 8%&-5%&4%	Epigenetic derep = 1.2%&-0.3%

Following part
19. Cc1ccc2nc(-c3ccc(NS(=O)(=O)c4ccc(F)cc4)cc3)sc2c1
20. CCN(CC)c1ccc2cc(C(=O)O)c(=O)oc2c1
21. O=C(O)c1cccnc1Sc1ccc(Cl)cc1
22. COc1ccccc1-c1noc(-c2ccncc2)n1
23. CC[C@](C)(CN(C)C)OC(=O)c1ccccc1

screen / no.,19,20,21,22,23
NPSR antag,-31%,-12%[46.1 µM],-9%,4%[46.1 µM],nt
JMJD2E inh,?,nt,-17%,-1%,-1%[25.5 µM]
RGS12 GoLoco inh,5%,2%,8%,5%,4%[21.6 µM]
Epigenetic derep,1.0%,6.4%,-0.2%,-2.1%,5.2%[16.9 µM]

Source: PubChem

Some of the compounds tested. The share of hits here may be higher or lower than overall.
